Menin-MLL FL inh: menin-MLL binding inhibition, fluorescein peptide. Fluorescence polarization, fluorescein-MLL peptide displacement from menin. FP activity change, % at 61.4 µM. 290,000 tested, under 10 active. AID 1766; inconclusive = falling polarisation curve, or a change in total fluorescence; inactive = total fluorescence flat and polarisation flat or rising; no compound was filed as active; the % refers to the polarisation; negative = inhibition;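 also: % of control where 0% means no effect; inhibitors lower the polarisation; unlabelled MLL peptide was the positive control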
Numbers without * were called inactive; ? = inconclusive; [ ] = remark or other dose. Some of the compounds tested; count on the stated rates, not on these rows.

The opening 18 entries (preview)
#	Molecule	Menin-MLL FL inh
1	CCC[C@@H]1C[C@@]1(CCC)C(NC(=O)c1ccc(-c2ccccc2)cc1)c1cccc(Cl)c1 (stereo not given in full)	-1.0
2	O=S(=O)(CCc1ccccc1)c1ccccc1	-0.4
3	COCCN1C(=O)N[C@@H](c2cccc(C(F)(F)F)c2)C(C(C)=O)=C1C	-1.9
4	Cc1ccc2c(COn3nnc4ccc(S(=O)(=O)N(C)C)cc43)cc(=O)oc2c1C	7.5
5	COc1cccc(Cn2c(=O)cnc3cnc(N4CCN(C)CC4)nc32)c1	?
6	CC(=O)[C@@H]1[C@@H]2C(=O)N(c3ccc(F)c(Cl)c3)C(=O)[C@@H]2C2c3ccccc3C=CN21 (stereo not given in full)	5.5
7	Cc1cc(NC(=O)CN2CCN(Cc3ccccc3)CC2)nc2c1c(=O)oc1ccccc12	8.2
8	CC(=O)c1ccc(N2CCN(CC(=O)Nc3ccc(N4CCOCC4)cc3)CC2)cc1	-6.9
9	CC1(C(=O)NC(=S)N(CCC#N)Cc2cccnc2)CC1(Cl)Cl (stereo not given)	-5.2
10	Cc1noc(C)c1-c1nccc(N2CCOCC2)n1	1.0
11	CCOC(=O)c1c(C)[nH]c(C(=O)COC(=O)c2cn(CC)c3nc(C)ccc3c2=O)c1C	2.0
12	COc1ccc(Oc2ncc3nc(-c4ccc(F)cc4)c(=O)n(C[C@H]4CCCO4)c3n2)cc1	-3.8
13	COc1cccc(NC(=O)/C=C\c2ccc(Cl)cc2)c1	25
14	CCOC(=O)N/N=C1/C[C@@H](O)[C@@H](O)[C@@H]2[C@@H]3C(=O)N(C[C@@H]4CCCO4)C(=O)[C@H]3CC[C@H]12	-1.2[11.7 µM]
15	CC(C)(C)OC(=O)NC(NC(=O)OCC1c2ccccc2-c2ccccc21)C(=O)O (stereo not given)	-29
16	Cc1cc(C(=O)OCC(=O)Nc2cc(S(=O)(=O)N(C)C)ccc2C)c(C)o1	-1.5
17	Cc1ccc(NC(=O)c2ccc(OCc3c(C)noc3C)cc2)cc1	-0.8
18	CCc1nnc(NC(=O)CN2C(=O)/C(=C/c3ccc(OC)c(OC)c3)SC2=S)s1	?

The listing, from the start:
#	Molecule	Menin-MLL FL inh
1	CCC[C@@H]1C[C@@]1(CCC)C(NC(=O)c1ccc(-c2ccccc2)cc1)c1cccc(Cl)c1 (stereo not given in full)	-1.0
2	O=S(=O)(CCc1ccccc1)c1ccccc1	-0.4
3	COCCN1C(=O)N[C@@H](c2cccc(C(F)(F)F)c2)C(C(C)=O)=C1C	-1.9
4	Cc1ccc2c(COn3nnc4ccc(S(=O)(=O)N(C)C)cc43)cc(=O)oc2c1C	7.5
5	COc1cccc(Cn2c(=O)cnc3cnc(N4CCN(C)CC4)nc32)c1	?
6	CC(=O)[C@@H]1[C@@H]2C(=O)N(c3ccc(F)c(Cl)c3)C(=O)[C@@H]2C2c3ccccc3C=CN21 (stereo not given in full)	5.5
7	Cc1cc(NC(=O)CN2CCN(Cc3ccccc3)CC2)nc2c1c(=O)oc1ccccc12	8.2
8	CC(=O)c1ccc(N2CCN(CC(=O)Nc3ccc(N4CCOCC4)cc3)CC2)cc1	-6.9
9	CC1(C(=O)NC(=S)N(CCC#N)Cc2cccnc2)CC1(Cl)Cl (stereo not given)	-5.2
10	Cc1noc(C)c1-c1nccc(N2CCOCC2)n1	1.0

#	Molecule	Menin-MLL FL inh
11	CCOC(=O)c1c(C)[nH]c(C(=O)COC(=O)c2cn(CC)c3nc(C)ccc3c2=O)c1C	2.0
12	COc1ccc(Oc2ncc3nc(-c4ccc(F)cc4)c(=O)n(C[C@H]4CCCO4)c3n2)cc1	-3.8
13	COc1cccc(NC(=O)/C=C\c2ccc(Cl)cc2)c1	25
14	CCOC(=O)N/N=C1/C[C@@H](O)[C@@H](O)[C@@H]2[C@@H]3C(=O)N(C[C@@H]4CCCO4)C(=O)[C@H]3CC[C@H]12	-1.2[11.7 µM]
15	CC(C)(C)OC(=O)NC(NC(=O)OCC1c2ccccc2-c2ccccc21)C(=O)O (stereo not given)	-29
16	Cc1cc(C(=O)OCC(=O)Nc2cc(S(=O)(=O)N(C)C)ccc2C)c(C)o1	-1.5
17	Cc1ccc(NC(=O)c2ccc(OCc3c(C)noc3C)cc2)cc1	-0.8
18	CCc1nnc(NC(=O)CN2C(=O)/C(=C/c3ccc(OC)c(OC)c3)SC2=S)s1	?
19	NC(=O)N=Nc1c(O)[nH]c2c(Br)cc(Br)cc12	0.6
20	FC(F)(F)c1ccccc1-c1cncnc1NCCc1cnc[nH]1	-5.5

#	Molecule	Menin-MLL FL inh
21	O=C1OC2(CCCCC2)CC2=C1C1O[C@](c3ccsc3)(Cc3c1ccc1ccccc31)O2	8.4[11.7 µM]
22	C=CCC1C=CC(Oc2ccc(OC)cc2)C(CO)O1 (stereo not given)	-2.5[11.7 µM]
23	O=[N+]([O-])c1cccc(S(=O)(=O)NCCNS(=O)(=O)c2cccc([N+](=O)[O-])c2)c1	-7.9
24	CCCOC(=O)c1ccc(NC(=O)c2cn(CC)c3nc(C)ccc3c2=O)cc1	2.0
25	COc1ccc(Oc2ncc3nc(-c4ccc(Cl)cc4)c(=O)n(C4CC4)c3n2)cc1	-4.4
26	O=C(/C=C/c1ccc(O)c(O)c1)c1ccc(O[C@@H]2O[C@H](CO)[C@@H](O)[C@H](O)[C@H]2O)c(O)c1O	6.1
27	O=C(O)CCC/C=C\CC1C2CCC(O2)C1CNNC(=O)Nc1ccccc1 (stereo not given)	-4.9
28	CCn1c2ccccc2c2cc(C3C(C#N)=C(N)OC4=C3C(=O)CC(C)(C)C4)ccc21 (stereo not given)	-1.6
29	N#CC(C(=O)NC1CCCCC1)c1nc2ccccc2nc1N1CCN(c2ccc(F)cc2)CC1 (stereo not given)	-0.1
30	O=C(c1cccc(F)c1)N1CCC2(CCN(Cc3cc(C(F)(F)F)cc(C(F)(F)F)c3)CC2)CC1	-3.9

#	Molecule	Menin-MLL FL inh
31	O=C(c1csnn1)N1CCC2(CCN(Cc3nccs3)CC2)CC1	-0.1
32	O=C1c2ccccc2C(=O)N1OS(=O)(=O)c1ccccc1	-0.5
33	C=C[C@@]1(C)CC(=O)[C@]2(O)[C@@]3(C)[C@H](O)CCC(C)(C)[C@@H]3[C@H](O)[C@H](OC(C)=O)[C@@]2(C)O1	1.3
34	O=S1(=O)CCOCCN1Cc1ccc(Cl)cc1Cl	-2.5
35	COCCNc1ccnc(-c2c(C)noc2C)n1	4.7
36	COc1cc(NC(=O)c2ccc(C)c([N+](=O)[O-])c2)ccc1NC(=O)c1ccco1	2.9
37	CCCCS(=O)(=O)N1C2=NC(C(=O)OC)=C(C(=O)OC)[C@@H]3N(C)c4ccccc4[C@]23C[C@H]1C(=O)OC	-0.1[11.7 µM]
38	CC1=CC2=NC(=O)/C(=C\c3ccc(-c4ccc(Cl)cc4)o3)C(=N)N2O1	?
39	COc1ccc(Oc2ncc3ncc(=O)n(Cc4cccs4)c3n2)cc1	-1.7
40	O=c1oc2cc(O)ccc2cc1-c1ccc2c(c1)OCCO2	9.2

#	Molecule	Menin-MLL FL inh
41	CCCCC[C@H](O)/C=C/C1=C(C/C=C\CCCC(=O)O)C(=O)CC1	-3.1
42	Cc1ccc(SCC(=O)NC(=O)NCc2ccco2)cc1C	0.7
43	CN1CCN(C2=Nc3ccccc3Sc3ccc(Cl)cc32)CC1	-3.5
44	COC(=O)N1CC=CC1(C)C(=O)O (stereo not given)	-1.0
45	O=C(c1csnn1)N1CCC2(CC1)CCN(c1ccccn1)CC2	3.5
46	CCCn1c2c(c(O)c(C(=O)Nc3ccccn3)c1=O)CCCC2	-2.8
47	COCCn1c(C(=O)N2CCCC2)cc2c1C[C@H]1CN(C(=O)c3ccccc3)[C@@](Cc3ccc(OC)cc3)(C(=O)OC)[C@@H]21	-1.4
48	O=C(c1cccc(F)c1)N1CCC[C@@]2(CCN(c3ccccn3)C2)C1	-3.1
49	COc1ccc(C2c3[nH]c4ccccc4c3CC3C(=O)N(CCc4ccc(OC)c(OC)c4)CC(=O)N32)cc1 (stereo not given)	9.2
50	CC(C)NC(=O)N1CCC2(CC1)CCN(C(=O)c1cc(C(F)(F)F)cc(C(F)(F)F)c1)CC2	5.5

#	Molecule	Menin-MLL FL inh
51	COCC(=O)N1CCc2nc(COc3ccccc3)c3c(c2C1)CO[C@@H](C)C3	-1.1[11.7 µM]
52	O=C1COc2ccc(N3C(=O)C=CC3=O)cc2N1	2.5
53	CC(=O)N1CCC2(CCCN(c3ccncc3)C2)CC1	?
54	C#CCCCO/N=C1/C[C@@H](O)[C@@H](O)[C@@H]2[C@@H]3C(=O)N(c4cccc(Oc5ccccc5)c4)C(=O)[C@H]3CC[C@@H]12	1.1[11.7 µM]
55	CC(C)(O)[C@@H]1CCC[N+]2(C)CCCC[C@H]12 (stereo not given in full)	0.8
56	N#Cc1cccc(-c2nc(NCc3cccs3)c3ccccc3n2)c1	0.5
57	CC(C)N(Cc1nnc(-c2ccccc2Cl)o1)C(=O)c1cccc(C#N)c1	-0.8
58	CCCCNc1c(N)n(CCCC)c(=O)[nH]c1=O	-25
59	CC1(C)NC(=O)N(CCCCOc2ccccc2[N+](=O)[O-])C1=O	1.5
60	CC(C)=CC1C(C(=O)O)C1(C)C (stereo not given)	-4.2

Part of the list above in a different format.
cpd | Menin-MLL FL inh | mol
53 | ? | CC(=O)N1CCC2(CCCN(c3ccncc3)C2)CC1
54 | 1.1[11.7 µM] | C#CCCCO/N=C1/C[C@@H](O)[C@@H](O)[C@@H]2[C@@H]3C(=O)N(c4cccc(Oc5ccccc5)c4)C(=O)[C@H]3CC[C@@H]12
55 | 0.8 | CC(C)(O)[C@@H]1CCC[N+]2(C)CCCC[C@H]12 (stereo not given in full)
56 | 0.5 | N#Cc1cccc(-c2nc(NCc3cccs3)c3ccccc3n2)c1

(list continues)
#	Molecule	Menin-MLL FL inh
61	Cc1nc(NC2=NCN(Cc3ccccc3)CN2)nc2ccccc12	0.9
62	C=C(C)C(=O)OCCOC(=O)C(=C)C	-1.1
63	C=CCC(O)c1ccccc1 (stereo not given)	3.3
64	COC(=O)[C@@]1(Cc2ccc(OC)cc2)[C@H]2c3cc(C(=O)N4CCCC4)n(CCN4CCNC4=O)c3C[C@H]2CN1C(=O)c1ccccc1	-1.4
65	c1ccc(C(c2ccccc2)N2CC[C@@]3(CCCNC3)C2)cc1	1.3
66	CCS(=O)(=O)N1CCC[C@H]2CN3CCc4cc(OC)ccc4[C@@H]3C[C@@H]21	7.1
67	CC(=O)OCC1OC(n2cnc3c(=O)[nH]cnc32)C(OC(C)=O)C1OC(C)=O (stereo not given)	2.0
68	Cc1ccccc1C(=O)NNC(=O)Nc1ccccc1	0.8
69	O=C(Oc1cccc2cccnc12)c1ccccc1	-2.7
70	CN(C)c1ncnc2ccc(-c3ccoc3)cc12	3.0

#	Molecule	Menin-MLL FL inh
71	Cc1cc(O)c(C=O)c(O)c1C(=O)O	-2.4
72	COc1cccc([C@@H]2Oc3ccc(Br)cc3C[C@H]2OC(=O)Nc2ccc(C)c(Br)c2)c1	1.6
73	c1csc(CNc2nc(-c3ccoc3)nc3ccccc23)c1	19
74	O=C(Nc1nc2c(ccc3ccccc32)s1)c1cc([N+](=O)[O-])ccc1N1CCOCC1	5.4
75	CC(C)CN1C(=O)/C(=C/c2c(N3CCc4ccccc4C3)nc3ccccn3c2=O)SC1=S	?
76	CN(Cc1ccco1)c1cc(-c2cccc(NS(C)(=O)=O)c2)ncn1	-2.0
77	CC(=O)OC[C@@H]1O[C@H](CCO/N=C(\C)CCN2CCCc3nc(C)c(C)cc32)C=C[C@@H]1OC(C)=O	-0.7[11.7 µM]
78	CC(C)CCCC(C)C1CCC2C3=CC[C@@H]4CC(O)CC[C@@]4(C)C3CC[C@]21C (stereo not given in full)	1.9
79	O=C(CSc1nc2[nH]ncc2c(=O)n1-c1ccccc1)N1CCCCCC1	0.4
80	CN(C)C(=O)c1ccc(-c2cc(Nc3ccccc3)ncn2)cc1	-0.1

#	Molecule	Menin-MLL FL inh
81	COc1cccc([C@@H]2Oc3ccc(Br)cc3C[C@H]2OC(=O)Nc2ccc(OC(F)F)cc2)c1	2.0
82	O=C(c1cccc(F)c1)N1CCC2(CC1)CCN(c1ccncc1)CC2	-7.6
83	O=c1cc(O)cc(/C=C/c2ccc(O)c(O)c2)o1	10
84	Nc1ncnc2c1ncn2[C@@H]1O[C@H](COP(=O)(O)OP(=O)(O)O)[C@@H](O)[C@H]1O	-0.8
85	CN1C(=O)CC[C@@H]1c1cccnc1	0.7[24.8 µM]
86	CC1=CC(=O)C2C(C)(C)CCC[C@@]2(C)[C@@]1(O)CCc1ccoc1 (stereo not given in full)	6.9
87	CC1(C(=O)CSc2ncn[nH]2)CCC(=O)O1 (stereo not given)	-0.9
88	CC(C)OC(=O)c1c(NC(=O)c2cnn3c2NC(c2ccccc2)CC3C(F)F)sc2c1CCCC2 (stereo not given)	2.4
89	COc1ccc(NC(=O)N2CCCC3(CCN(C(=O)c4c(C)noc4C)CC3)C2)cc1	0.4
90	CCNc1ncc2nc(-c3ccc(OC)cc3)c(=O)n(CCc3ccccc3)c2n1	13
91	Cc1ccc(S(=O)(=O)Nc2ccc(NS(=O)(=O)c3ccc(C)cc3)c3ncccc23)cc1	0.1
92	O=C(CC1NCCC[C@H]1O)Cn1cnc2cc(Br)c(Cl)cc2c1=O (stereo not given in full)	-1.7

Source: PubChem
